From PubChem
Biofilm kill mix: mixtures killing C. albicans biofilm; C. albicans biofilm persisters + clotrimazole, fluorescence viability; primary screen in compound mixtures of four per well; inhibition, % at 7.6 µM; hit rate 0.02% among 120,000; AID 1242;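 active = inhibition above 30.3% in the primary screen of four-compound pools, then above 30% when the compound was retested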;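 also: compounds exposed to preformed 24 h biofilms for 48 h; the number belongs to the whole pool; some results filed as inactive read as strong as hits; inactives centre near 12; 0% = biofilm with clotrimazole alone and 100% = kill control; retested singly at about 60 µM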
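Test system: C. albicans biofilms. Buffer or medium: RPMI/MOPS medium, pH 7.0. Timing: 48 h compound exposure at 37 °C. Technique: Alamar Blue fluorescence. Evaluation: percent inhibition of biofilm viability.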
* marks the source's active call; other numbers are inactive results. Not all compounds are listed; count on the stated rates, not on these rows.

SMILES | Biofilm kill mix
COc1cc(CNC2CCCC2)cc(Br)c1OCC(=O)Nc1ccccc1C | 7
COc1ccc(-c2c(-c3ccc(OCC(=O)NN)cc3O)n[nH]c2C(F)(F)F)cc1 | 17
Cc1ccc(C(=O)CC(=O)c2ccc(C(C)(C)C)cc2)cc1 | 23
CC(C)(C)C1=CC=C(C(C)(C)C)C(=O)C1=O | 14
CSc1c(C#N)c(N)nc2sc(C(=O)c3ccccc3)c(N)c12 | 16
CN(C(=O)/C=C/c1cnc2ccccc2c1)C1CCCCC1 | 5
CC(C)N(C(=O)CSc1nnc(CNc2ccc(F)cc2)o1)C(C)C | 3
COc1ccccc1CC(=O)O/N=C(\N)c1ccccn1 | 15
Cc1ccc2c(C(=O)CN3CCN(C(=O)c4ccco4)CC3)c(C)[nH]c2c1 | 8
CC(C)(C)C(=O)NNc1nc(-c2ccccc2)c2cc(Br)ccc2n1 | 8
COc1cc(C(=O)N/N=C/c2ccc(OC(=O)N3CCOCC3)cc2)cc(OC)c1OC | 19
CC(OC(=O)c1ccco1)C(=O)Nc1ccc(Cl)cn1 (centres undefined) | 1
CCN1/C(=C\C=C(C(C)=O)C(C)=O)Sc2ccccc21 | 5
C/C(=N\n1cnnc1)c1ccc(C#N)cc1 | 7
CC1(OC(=O)c2ccc(Cl)nc2)C(=O)C=C2C=C3CCCN3C=C2C1=O (centres undefined) | 16
Cc1cc(C)c(O)c(-c2cc(C(=O)Nc3cccnc3)[nH]n2)c1 | 23
O=C(COC(=O)c1ccco1)NCc1ccc(Cl)cc1 | 16
C/C(=N\NC(=S)NCCc1ccccc1)c1ccc(C)cc1 | 12
N#CCC(N)=C(C#N)C#N | 7
COc1ccc(N2COC3c4cccc5cccc(c45)C32)cc1 (centres undefined) | 5
O=C(NCC1CCCO1)C(c1ccc(F)cc1)N(Cc1ccc(F)cc1)C(=O)Cn1nnc(-c2cccs2)n1 (centres undefined) | 12
CCC(C(=O)NC(C)(C)C)N(Cc1cccs1)C(=O)CNS(=O)(=O)c1ccccc1 (centres undefined) | 23
CC(C)=NOCc1ccc(-c2cn([C@@H]3COC[C@H]3O)nn2)cc1 | 14
CN(CCC#N)C(=O)CC1(Cc2ccccc2)CCOC(C)(C)C1 (centres undefined) | 25
NNC(=O)C(Cc1c[nH]c2ccccc12)NC(=O)c1ccccc1 (centres undefined) | 4

A portion of the results above, as a working copy:
SMILES | Biofilm kill mix
CN(C(=O)/C=C/c1cnc2ccccc2c1)C1CCCCC1 | 5
CC(C)N(C(=O)CSc1nnc(CNc2ccc(F)cc2)o1)C(C)C | 3
COc1ccccc1CC(=O)O/N=C(\N)c1ccccn1 | 15
Cc1ccc2c(C(=O)CN3CCN(C(=O)c4ccco4)CC3)c(C)[nH]c2c1 | 8
CC(C)(C)C(=O)NNc1nc(-c2ccccc2)c2cc(Br)ccc2n1 | 8
COc1cc(C(=O)N/N=C/c2ccc(OC(=O)N3CCOCC3)cc2)cc(OC)c1OC | 19
CC(OC(=O)c1ccco1)C(=O)Nc1ccc(Cl)cn1 (centres undefined) | 1
CCN1/C(=C\C=C(C(C)=O)C(C)=O)Sc2ccccc21 | 5
C/C(=N\n1cnnc1)c1ccc(C#N)cc1 | 7
CC1(OC(=O)c2ccc(Cl)nc2)C(=O)C=C2C=C3CCCN3C=C2C1=O (centres undefined) | 16
Cc1cc(C)c(O)c(-c2cc(C(=O)Nc3cccnc3)[nH]n2)c1 | 23
O=C(COC(=O)c1ccco1)NCc1ccc(Cl)cc1 | 16
C/C(=N\NC(=S)NCCc1ccccc1)c1ccc(C)cc1 | 12
N#CCC(N)=C(C#N)C#N | 7
COc1ccc(N2COC3c4cccc5cccc(c45)C32)cc1 (centres undefined) | 5
O=C(NCC1CCCO1)C(c1ccc(F)cc1)N(Cc1ccc(F)cc1)C(=O)Cn1nnc(-c2cccs2)n1 (centres undefined) | 12
CCC(C(=O)NC(C)(C)C)N(Cc1cccs1)C(=O)CNS(=O)(=O)c1ccccc1 (centres undefined) | 23
CC(C)=NOCc1ccc(-c2cn([C@@H]3COC[C@H]3O)nn2)cc1 | 14

The list continues:
SMILES | Biofilm kill mix
COc1ccc(CCn2nnnc2CN2CCN(C(=O)c3ccco3)CC2)cc1OC | 0
COCCCN1CN(S(=O)(=O)c2cccs2)c2nc3ccccc3nc21 | 11
COc1ccc(NC(=S)NCCCCCC(=O)C[N+](=O)[O-])cc1 | 11
COc1nc(NC2CCCCC2)nc(N2CCCCCC2)n1 | 12
CCN(CC)S(=O)(=O)c1ccc(C(=O)OCC(=O)Nc2ccc(-c3nc4ccc(C)cc4s3)cc2)cc1 | 5
Nc1c(C(=O)Nc2cccc(Cl)c2Cl)sc2nc(-c3cccnc3)ccc12 | 13
O=C(Nc1nc(-c2ccc(F)cc2)cs1)c1ccc(N2C(=O)CCC2=O)cc1 | 8
Cc1ccc(C(=O)N/C(=C/c2ccc(C(C)C)cc2)C(=O)NCCCN2CCOCC2)cc1 | 24
O=C(N/N=C/c1c[nH]c2ccc(Br)cc12)c1ccccn1 | 1
CCOC(=O)C1=C(C)N(c2ccccc2)C(=O)C1 | 9
Cc1ccc(CNc2ccc(N3C(=O)CCCC3=O)cc2[N+](=O)[O-])cc1 | 13
COC(=O)c1c(NC(=O)CSc2nc3nc(C)cc(C)n3n2)sc(C)c1C | 11
CCOC(=O)C(C)N1C(=O)S/C(=C/c2ccc3c(c2)n(C)c(=O)n3C)C1=O (centres undefined) | 22
CCOc1ccc(-n2nc3c(Cl)nnc(C)c3c2C)cc1 | 16
Cn1cc(SCC(=O)NCCc2ccccc2)c2ccccc21 | 3
N#Cc1cc(-c2ccccc2)nc(NN)n1 | 28
COC(=O)/C=C1\N/C(=N\c2nc(C)cc(C)n2)N(c2ccccc2)C1=O | 13
O=C(O)CNC(=O)CC1S/C(=N/N=C2/NC(=O)CS2)NC1=O (centres undefined) | 16
O=C(N/N=C/c1cc(Cl)ccc1O)C(=O)Nc1ccccc1OC(F)(F)C(F)F | 19
Cc1ccc(C)c(NC(=S)NNC(=O)c2cc3c(s2)CCC(C)C3)c1 (centres undefined) | 5
CNS(=O)(=O)c1ccc(NC(=O)c2ccoc2C)cc1 | 1
CC(C)(C)c1ccc(C(=O)Nc2sc3c(c2C(=O)O)CCC3)cc1 | 13
CC(NC(=O)c1ccc2c(c1)OCO2)C(c1cccs1)N1CCN(c2ccccc2)CC1 (centres undefined) | 15
COc1ccccc1N/N=C(\C#N)C(=N)N1CCOCC1 | 13
CCCn1c(N)c(NCCN2CCOCC2)c(=O)[nH]c1=O | 6
(further entries)
SMILES | Biofilm kill mix
COc1ccccc1CNC(=O)C1=CCN(S(=O)(=O)c2ccc(C)cc2)CC1 | 23
Cc1cc(=O)[nH]c(N/N=C/c2ccc(OC(=O)c3ccco3)cc2)n1 | 8
COc1ccc(-c2cc(C(=O)Nc3ccccc3F)on2)cc1 | 16
CCOC(=O)C1=C(C)N(C)C(=S)NC1c1ccccc1 (centres undefined) | 15
O=C(COC(=O)C1CC2C=CC1C2)NCCc1ccccc1 (centres undefined) | -8
CCCCCc1cc(=O)oc2c(C(CCN3CCCC3)c3cc(OC)c(OC)c(OC)c3)c(OC)cc(OC)c12 (centres undefined) | 4
O=C(CN1CCc2ccccc21)NN1CC(=O)N(c2ccc(Cl)cc2)CC1=O | 17
COP(=O)(CC(=O)c1ccccc1)CC(=O)c1ccccc1 | -13
O=C1C(Nc2ccccc2)=CC(c2ccc(O)cc2)N1c1ccccc1 (centres undefined) | 7
CC(O)CNc1nc2sc3c(c2c(=O)n1CCc1ccccc1)CCCCC3 (centres undefined) | 22
COc1cc(-c2cc(C(=O)Nc3ccc(S(=O)(=O)Nc4ncccn4)cc3)c3ccccc3n2)cc(OC)c1OC | 1
Cc1ccc(CN2CCN(Cc3cnn(-c4ccc(F)cc4)c3)CC2CCO)o1 (centres undefined) | 17
CCOC(=O)c1c(-c2cccc([N+](=O)[O-])c2)cn2ccccc12 | 8
O=C1c2oc3ccc(F)cc3c(=O)c2C(c2cccc(O)c2)N1CCCN1CCOCC1 (centres undefined) | -6
Cc1ccc(CN2CCN(Cc3ccc(-n4cccn4)cc3C)CC2CCO)cc1 (centres undefined) | 6
N/C(=N\OC(=O)/C=C/c1ccccc1Cl)c1ccccn1 | 16
COc1ccc2oc(=O)c(C(=O)OCC(=O)c3ccc([N+](=O)[O-])cc3)cc2c1 | 14
CCc1ccc(/C=C2/C(=O)N(c3ccccc3)C(=S)N2CC(=O)OC)s1 | 4
Cc1ccccc1C(=O)N1CCN(c2ccc(NC(=S)NC(=O)c3cccs3)cc2)CC1 | 12
CN(C(=O)CS(=O)(=O)c1cn(CC(=O)N2CCOCC2)c2ccccc12)c1ccccc1 | 15
COc1ccc(CN2CCC(CO)(Cc3ccccc3C(F)(F)F)CC2)c(F)c1 | 14
CC(C)COC(=O)/C(C#N)=C/c1c[nH]c2ccccc12 | 15
O=C(NC1CCCc2ccccc21)c1ccc2c(c1)OCO2 (centres undefined) | 9
FC(F)(F)COc1ccc(-c2nnc(SCc3ccccc3)o2)cn1 | 13
Cc1cccc(C(=O)NNC(=O)c2ccco2)c1 | 4
Continued.
SMILES | Biofilm kill mix
Cc1noc(C)c1CN(C(=S)NC(C)C)c1ccccc1 | 10
CCOC(=O)C1CCN(C(=O)Nc2ccc(OC(F)(F)F)cc2)CC1 | 27
COC(=O)c1sccc1NC(=O)CC1C(=O)NCCN1C(=O)Nc1ccc(OCc2ccccc2)cc1 (centres undefined) | 5
CCNC(=O)CSc1nc(-c2ccccc2)cs1 | 9
Cc1nn(-c2ccccc2)c(N2CCCC2)c1/C=N/NC(=S)Nc1ccccc1F | 18
COc1ccc([C@H]2[C@H](C(=O)OC(C)(C)C)N3N=Cc4ccccc4C3C23C(=O)c2ccccc2C3=O)c(OC)c1 (some centres undefined) | 14
N#CCNC(=O)c1cccn1-c1ncc(C(F)(F)F)cc1Cl | 15
O=C(c1ccccc1F)c1cc2c(cc1[N+](=O)[O-])OCCO2 | 12
COc1ccc(/C=N/N=C2/SCC(=O)N2Cc2ccccc2)cc1 | 2
COc1ccc(NC(=O)N[C@@H](CCSC)C(=O)O)cc1OC | 19
COc1ccc(-n2cc(CNCCc3nc(C)cc(C)n3)c(-c3ccccc3Cl)n2)cc1 | 6
Cc1oc2ccc(O)cc2c1C(=O)c1ccc([N+](=O)[O-])cc1 | 8
COCCn1c(C)nnc1SCC(=O)Nc1ccccc1[N+](=O)[O-] | 29
Cc1ccc(NC(=O)CN(C)C(=O)CSc2nnnn2C)cc1 | -1
O=C(CSc1nnc(SCc2ccccc2)s1)N/N=C/C=C\c1ccco1 | 12
Cc1c(S(=O)(=O)c2ccccn2)c(N)n(Cc2ccccc2Cl)c1C | 13
COc1cccc(C(=O)/C=C/Nc2ccc(S(=O)(=O)Nc3nc(C)cc(C)n3)cc2)c1 | 16
O=C(COC(=O)c1cccc(S(=O)(=O)N2CCN(c3ccccc3)CC2)c1)NCC1CCCO1 (centres undefined) | 19
COc1ccc(S(=O)(=O)N2CCOCC2)cc1NC(=O)CN1CCCC1 | 27
Cc1ccc(C(=O)O)cc1NC(=S)NC(=O)c1ccc([N+](=O)[O-])cc1Cl | 10
O=C(c1cccc([N+](=O)[O-])c1)c1cc2ccccc2o1 | 8
Cc1c(Cl)cccc1NC(=S)NC1CC1 | -8
CCc1ccc2nc(N)sc2c1 | 18
CCOC(=O)C1(CCOC)CCN(Cc2ccc(C(=O)OC)cc2)CC1 | 6
CCOC(=O)C(NC(C)=O)(Nc1ccc(S(=O)(=O)Nc2ncccn2)cc1)C(F)(F)F (centres undefined) | -5
Later entries
SMILES | Biofilm kill mix
O=C(c1ccc([N+](=O)[O-])o1)N1CCc2ccccc2C1 | 18
N/C(Cc1ccc([N+](=O)[O-])cc1)=N\OC(=O)c1cccc(Br)c1 | 3
O=C(NNC(=O)C1CC=CCC1C(=O)O)c1cccs1 (centres undefined) | 2
CNc1nc(Cl)nc(Nc2ccccc2)n1 | 9
COc1cccc(C(=O)NNC2=C(C(=O)C(F)(F)F)CCC2)c1 | 17
CCOC(=O)C(C)n1cnc2sc(C)c(C)c2c1=O (centres undefined) | 16
C/C(=N\NC(=S)NCc1ccccc1)c1ccc2c(c1)OCCO2 | 11
COc1ccc(/C=C/c2cc[n+](C(=O)Cc3ccccc3)cc2)cc1 | 13
Nc1ccc(S(=O)(=O)NC2=NCCCCC2)cc1N | 20
CCc1nnc(NC(=O)c2ccc3nc(CC)c(CC)nc3c2)s1 | 5
COc1ccc(-c2nnc(SCC(=O)c3cccs3)n2-c2ccc(Cl)cc2)cc1 | 10
COC(=O)c1c(C)[nH]c(C(=O)/C=C/c2cccc(Cl)c2)c1C | 15
Cc1ccccc1CN(C)CC(=O)Nc1ccccc1-c1ccccc1 | 11
COC(=O)c1c(NC(=O)C(Cl)Cl)sc2c1C(C(=O)OC)CC2 (centres undefined) | 10
CCOc1ccc(C2=NNC(c3cccs3)=Nc3ccc(OC)cc32)cc1OCC | 7
N#CCSc1nnc(-c2sc3ccccc3c2Cl)o1 | 18
Nc1nc(CSc2nc3ccccc3s2)nc(Nc2ccccc2)n1 | 14
Cc1ccc(S(=O)(=O)NN2C(=O)c3ccccc3NC2C)cc1 (centres undefined) | 9
O=c1c2c(nc3nc(NCc4ccccc4Cl)[nH]n13)CCC2 | 13
Cc1ccc(Cn2ccsc2=NC(=O)CCl)cc1 | 9
CCOC(=O)N1CCC(N2CCN(C3CCCC3)C(CCO)C2)CC1 (centres undefined) | 12
Cc1c(C(=O)C(=O)NCCc2ccc(S(N)(=O)=O)cc2)c2ccccc2n1C | 11

Reformatted with tabs: 2 of the compounds above
Molecule	Biofilm kill mix
Cc1ccccc1CN(C)CC(=O)Nc1ccccc1-c1ccccc1	11
N#CCSc1nnc(-c2sc3ccccc3c2Cl)o1	18
